# HPGD inh = inhibitors of human 15-hydroxyprostaglandin dehydrogenase (HPGD); AID 894; Potency, µM, for the others: at the highest dose activity change, negative = inhibition, hits mostly inhibitors; 4.3% of 150,000 active; purified HPGD, NADH fluorescence kinetic, PGE2 substrate; P15428; active = well fitted inhibition curve with a large enough effect (not every such curve was filed as active); inconclusive = small, poorly fitted or top-dose-only effect, or another doubt; inactive = no such curve, though single readings can be large or run the other way;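 further: top concentration of the series not given in the record; plate controls included wells without enzyme; inactives centre near -10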
# Target sequence (P15428 whole entry, looked up): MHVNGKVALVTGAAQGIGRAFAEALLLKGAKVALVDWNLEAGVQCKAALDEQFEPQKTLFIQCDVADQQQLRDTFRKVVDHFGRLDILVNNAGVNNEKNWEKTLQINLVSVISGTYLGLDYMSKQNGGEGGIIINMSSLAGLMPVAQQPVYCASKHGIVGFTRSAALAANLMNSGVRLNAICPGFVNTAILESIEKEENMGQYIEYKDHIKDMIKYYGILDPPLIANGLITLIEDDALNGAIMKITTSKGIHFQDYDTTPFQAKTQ
#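 NADH formation kinetics: reaction with 30 uM PGE2 and 1 mM NAD+ (final), 20 nM enzyme, Tris-HCl pH 8 with Tween 20, after 15 min compound preincubation at room temperature. Fluorescence change, last versus first of five reads.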
# * hit, by the source's call; ? = inconclusive. On the % scale 0 is the no-effect control and ±100 the full control effect; potency means the concentration at half of the fitted maximal effect.
canonical_smiles	HPGD inh
CCC(c1nnnn1C1CCCC1)N1CCN(c2ccccc2)CC1 (configuration not stated)	-5%
COc1ccc(NC(=O)CSc2nc3ccccc3c(=O)n2Cc2cccs2)c(OC)c1	-10%
O=C(CNC(=O)c1ccco1)OCC(=O)c1ccccc1	-10%
Cc1nn(CC(O)Cn2c3c(c4ccccc42)CCN(C)C3=O)c(C)c1Br (configuration not stated)	-14%
NNC(=O)CN1C(c2ccc(Br)cc2)=Nc2ccc(Br)cc2C1c1ccccc1 (configuration not stated)	1%
Nc1nonc1C(=O)NCCNCc1ccccc1OCc1ccccc1F	-2%
Cc1ccsc1/C=N/n1c(-c2ccccc2)n[nH]c1=S	13µM*
CCCCc1ccc(Nc2ncccc2C#N)cc1	?
CS(=O)(=O)N(Cc1ccccc1)c1ccccc1C(=O)N1CCN(c2ccccc2)CC1	-7%
CC1=CCC2C(=O)N(c3nc4ccccc4n3C)C(=O)C2C1 (configuration not stated)	3%
O=C(CSc1nnc(Cc2ccccc2)n1-c1cccc(Cl)c1)N1CCOCC1	-1%
CCCCCOC(=O)c1[nH]c2c(c1C)C(=O)CC(c1ccco1)C2 (configuration not stated)	-8%
O=C1CN(C(=O)c2cccs2)c2ccccc2N1	-24%
Cc1nn2c3ccccc3nc2c2ccccc12	-17%
O=C1c2ccccc2C(=O)N1CCCc1nc(-c2cccnc2)no1	-5%
Cc1c(C#N)c(N=CN(C)C)c(C(=O)c2ccc(Br)cc2)n1-c1ccc(Cl)cc1	-17%
COCCNC(=O)c1ccccc1NC(=O)c1ccccc1N(C)S(=O)(=O)c1ccc(C)cc1	2%
Cc1ccc(N2C(=O)[C@@H]3[C@H](C2=O)C2c4ccccc4C=NN2[C@@H]3C(=O)c2ccc(Cl)cc2)cc1 (some centres not stated)	-26%
CCOc1ccc(C2=NNC(c3cccs3)=Nc3ccc(OC)cc32)cc1	-24%
COc1ccc(N/C(C)=C/C(=O)c2ccccc2)cc1	-10%
O=C(C1CCCN(S(=O)(=O)c2cccs2)C1)N1CCc2ccccc2C1 (configuration not stated)	-6%
CC(C)OCCCNS(=O)(=O)c1ccc2c(c1)oc(=O)n2C	0%
COc1ccc(CNc2ccc3c(c2)CCC3)cc1OC	-3%
O=C(Cn1nc(C(F)(F)F)c2c1CCCC2)Nc1ccc2c(c1)OCO2	-5%
Cc1ccc(-c2nn(C)c(=O)c3ccccc23)cc1S(=O)(=O)NCCN1CCOCC1	?
Cc1ccc(C(C)C)c(OCC(=O)Nn2c(=O)[nH]c3ccccc3c2=O)c1	-9%
CCOc1cccc2cc(-c3nnc(NCc4ccc5c(c4)OCO5)s3)c(=O)oc12	?
CCOc1cc(C(=O)Nc2c(C)ccc3nsnc23)cc(OCC)c1OCC	?
Fc1ccccc1N1CCN(Cc2nc(-c3ccc(Cl)cc3Cl)no2)CC1	-10%
CCCCn1c(SCC(=O)Nc2nnc(C)s2)nnc1-c1ccoc1C	2%
Cc1nc2c(c(=O)n1Cc1ccccc1Cl)c1nc3ccccc3nc1n2Cc1ccco1	?
OCCNc1cc(-n2nc(-c3ccccc3)cc2-c2ccccc2)ncn1	-7%
Nc1cc(=O)[nH]c(=O)n1Cc1ccccc1	3%
CCOc1ccc(C(C)NC(=O)Nc2ccccc2C(=O)OC)cc1 (configuration not stated)	-13%
CCN(Cc1cc2ccccc2[nH]c1=O)C(=O)C1CCCCC1	-16%
CCn1ncc(C2=NOC(C(=O)Nc3c(C)nn(Cc4ccc(F)cc4)c3C)C2)c1C (configuration not stated)	-3%
CCNS(=O)(=O)c1ccc(S(=O)(=O)N(Cc2ccccn2)C2CCCCC2)cc1	-12%
O=C(COC(=O)C1(c2ccccc2F)CCCC1)N1CCOCC1	-14%
CCCCN(C)Cc1c(O)ccc2c(-c3ccccc3)cc(=O)oc12	?
COc1ccnc(N=CNOCc2ccc(C)cc2)c1C#N	-16%
CCCCOC(=O)c1ccc(NC(=O)COC(=O)CSc2nc(C)cc(C)n2)cc1	-14%
CCOC(=O)c1sc(NC(=O)c2c(C)nn(Cc3ccccc3)c2C)cc1C	-17%
O=C(Nc1ccc(Cl)c(C(F)(F)F)c1)C(=O)N1CCCCC1	-9%
COc1ccc(OC)c(Nc2cc(-c3ccccc3)nc(N)n2)c1	?
CCOC(=O)C(NC(=O)c1cccc(Cl)c1)(OCc1ccccc1)C(F)(F)F (configuration not stated)	-2%
COC(=O)C1=C(N)Oc2cc(C)n(CCc3ccccc3)c(=O)c2C1c1cccnc1 (configuration not stated)	-13%
CN1C(=O)CC(P(=O)(c2ccccc2)c2ccccc2)N(C)C1=O (configuration not stated)	-5%
CCOc1ccc(/C=C/C(=O)Nc2ccc(C(N)=O)cc2)cc1OC	?
O=S(=O)(c1ccc(Oc2ccccc2)cc1)N1CCOCC1	-15%
COc1cccc(-c2nnc(-c3ccco3)o2)c1	?

# Reprinted at random: 2 compounds from above
canonical_smiles	HPGD inh
COc1ccc(OC)c(Nc2cc(-c3ccccc3)nc(N)n2)c1	?
O=C(Nc1ccc(Cl)c(C(F)(F)F)c1)C(=O)N1CCCCC1	-9%

# Continuation.
canonical_smiles	HPGD inh
c1ccc(-c2nn3nnnc3c3ccccc23)cc1	-12%
COc1c(C2=CC(=O)N(C)C2=O)c2c(n1C)C(=O)c1ccccc1C2=O	-6%
COc1ccc(S(=O)(=O)Nc2cc(C)c(O)cc2C(C)C)cc1	-18%
O=c1[nH]c(=O)n(Cc2ccco2)c2c1C(C(F)(F)F)(C(F)(F)F)N=C(Cc1ccccc1)N2	?
COc1ccc2c(c1)-c1nc(/N=C/c3c(O)ccc4ccccc34)sc1CC2	?
Cc1nc2cc(NC(=O)N3CCC(c4ccccc4)C3)ccc2n1C (configuration not stated)	3%
N#Cc1ccc(-c2ccc(F)cc2)nc1Sc1ccccc1	-9%
C/C(=N\OCC(=O)Nc1c(C)cc(C)cc1C)c1ccc2c(c1)OCCO2	-15%
COc1ccc(CCC(=O)NCc2ccco2)cc1	?
Cc1nc(SCC(=O)NC(C)(C#N)C2CC2)c2c(-c3cccs3)csc2n1 (configuration not stated)	-20%

# Taken from above.
# Cc1nc2cc(NC(=O)N3CCC(c4ccccc4)C3)ccc2n1C (configuration not stated) in HPGD inh has 3%
# Cc1nc(SCC(=O)NC(C)(C#N)C2CC2)c2c(-c3cccs3)csc2n1 (configuration not stated) in HPGD inh has -20%
# COc1c(C2=CC(=O)N(C)C2=O)c2c(n1C)C(=O)c1ccccc1C2=O in HPGD inh has -6%
# N#Cc1ccc(-c2ccc(F)cc2)nc1Sc1ccccc1 in HPGD inh has -9%

# Next section:
canonical_smiles	HPGD inh
Cc1nn(CCc2nn[nH]n2)c2nc(C(F)(F)F)cc(C(F)(F)F)c12	?
O=C(C1CCN(S(=O)(=O)c2cccc3nsnc23)CC1)N1CCc2ccccc21	0%
COCCNc1ccnc2c(Cl)cccc12	-17%
Cc1ccccc1-c1nnc(-c2ccc(Br)cc2)o1	-21%
CCN(CC)C(=O)c1ccc(CS(=O)(=O)c2ccc(OC)cc2)o1	-8%
Cc1ccc(-c2nnc(SCC(=O)Nc3sc(C)c(C)c3C#N)n2C)cc1	2%
CCn1nc(C)c(/C=N/NC(=O)Cc2ccc(Cl)cc2)c1C	-9%
COc1cccc(C(=O)Nc2cccc(-c3nc4ncccc4o3)c2C)c1	-16%
Nc1nonc1-c1nc2ccccc2n1CC(=O)N/N=C\c1ccc(-c2ccc(Cl)cc2)o1	?
CC(C)CC(=O)NC(=S)Nc1cc(C(F)(F)F)ccc1N1CCOCC1	-4%
CCN(CC)S(=O)(=O)c1ccc(NC(=O)Cn2c(=O)sc3ccccc32)cc1	-10%
N#C/C(=C\c1sc(N2CCOCC2)nc1-c1ccccc1)C(=O)Nc1cccc2ccccc12	-11%
COc1cc(-c2nnc(CSc3nc4ccccc4s3)o2)cc(OC)c1OC	-17%
O=C(c1nc2ncccn2n1)N1CCN(c2ccc(F)cc2)CC1	-1%
CCOC(=O)c1c(-c2ccc(C)o2)csc1NC(=S)NC(=O)c1ccc(F)cc1	-15%
COc1ccc(C(c2nnnn2C2CCCC2)N2CCC(C)CC2)c(OC)c1 (configuration not stated)	-9%
COc1ccccc1NC(=O)C1=C(C)NC(=O)NC1c1cccc(OC)c1OC (configuration not stated)	-13%
O=C(CN(Cc1ccccc1)S(=O)(=O)c1ccccc1)N/N=C/c1ccccc1[N+](=O)[O-]	-1%
CCOc1ccc2nc(SCC#N)c(C#N)cc2c1	-12%
Cc1ccc(-c2nnc(CSc3nc(C(C)C)nc4sc(C)c(C)c34)o2)cc1	-13%
Cc1cn(C(=O)c2cccc(Br)c2)c(C)n1	-9%
CCCCNc1c([N+](=O)[O-])cc(C)cc1[N+](=O)[O-]	-12%
CCCOc1ccc(CNC(=O)Cn2c(=O)oc3ccccc32)cc1	-16%
Oc1ccc(Cl)cc1C1=NCCNC(C(F)(F)C(F)F)=C1	-1%
O=C(CCCCCN1C(=O)CCC1=O)NCc1ccccc1	-25%
COc1ccccc1N1CCN(C(=O)c2c(C)cc(=O)oc2C)CC1	-13%
N#CCCn1c(SCC(=O)c2c[nH]c3ccccc23)nc2ccccc21	-13%
CCOC(=O)c1cnc2nc(NCc3ccc(OC)c(OC)c3)[nH]n2c1=O	-14%
O=C(C[n+]1cc2ccccc2c2ccccc21)c1ccccc1	?
CC(C)C1C2=C(CC(C)(C)CC2=O)ON1c1ccccc1 (configuration not stated)	?
CCCCCn1c(CN2CCCCC2C)nc2c1c(=O)n(C)c(=O)n2C (configuration not stated)	-17%
O=C(c1ccc(Br)o1)N1CCN(c2ccccn2)CC1	-30%
O=C(Nn1nnnc1Nc1ccccc1)C12CC3CC(CC(C3)C1)C2	9%
Cn1c(=O)c2c(nc(N3CCCC3)n2CC(O)CO)n(C)c1=O (configuration not stated)	-10%
CCCCNC(=O)Nc1cc(C(=O)OC)ccc1C	-10%
COc1ccc(C(=O)N/N=C2/C(=O)c3c(C)cc(C)cc3CC2(C)C)cc1	-12%
O=C(/C=C/c1cccs1)Nc1ccncc1	-9%
Cc1cc(/C=C2\C(=N)N3C(SCc4ccccc4)=NSC3=NC2=O)c(C)n1Cc1ccccc1	?
Cc1ccc(Nc2nc(N)c([N+](=O)[O-])c(N3CCOCC3)n2)cc1	-9%
COCc1cc(C)nc2sc(C(=O)NC3CCCCC3)c(N)c12	-10%
CCCCC1CCC(/C(N)=N/O)CC1 (configuration not stated)	-11%
CCCCCCNC(=O)C(C(=O)OCC)C1CCCCC1 (configuration not stated)	-10%
Cc1ccc(-n2c(COc3c(C)cccc3C)nnc2SCC(=O)Nc2nccs2)cc1	-1%
COC(=O)c1[nH]c2cccc(Cl)c2c1NC(=O)CN(C)C1CCCCC1	-15%
Cc1ccccc1S(=O)(=O)c1c(C)cc(C)n(CC(C)C)c1=O	-4%
c1ccc(-c2nc(CSc3nnc(-c4cccs4)o3)cs2)cc1	-23%
CC(=O)Nc1ccc(NC(=O)CSCc2cnn(-c3ccccc3)c2-n2cccc2)cc1	-4%
Nc1nnnn1/N=C/c1ccccc1OCc1ccc(Cl)cc1	?
CCOC(=O)n1c(=O)oc2ccc(Cl)cc21	-2%
CC(C)CC1NC(=O)N(CC(=O)N2CCN(S(=O)(=O)c3ccc(Cl)cc3)CC2)C1=O (configuration not stated)	-14%

# Later entries.
canonical_smiles	HPGD inh
Cc1nc2c(cnn2-c2ccccc2Cl)c(=O)n1-c1ccc(N2CCC(C)CC2)cc1	-8%
Cc1cc(Nc2ccc(F)cc2)nc(N)n1	-7%
Cc1ccc(C2CC(c3cccs3)=NN2S(=O)(=O)c2ccc(C)cc2)cc1 (configuration not stated)	-2%
COc1cc2c(cc1OC)C(SC)=NC(C)(C)C2	-11%
COc1ccc(NC(=O)c2ccc(COCC(F)(F)C(F)F)cc2)cc1OC	-12%
CCS(=O)(=O)Nc1ccc(Cc2ccc(NS(=O)(=O)CC)cc2)cc1	5.6µM*
COc1cc(Cl)c(C)cc1NC(=O)COC(=O)C(NS(=O)(=O)c1ccc(Cl)cc1)C(C)O (configuration not stated)	-5%
COc1ccc(CCNC(=O)CN(c2ccccc2)S(C)(=O)=O)cc1OC	-10%
O=C(O)CCn1c(=O)c2ccccc2c2ccccc2c1=O	-9%
CN(CC(=O)Nc1ccccc1Oc1ccccc1)Cc1ccccc1F	0%
CN(C)c1nc(SCC#N)nc(N2CCOCC2)n1	-2%
O=C(N1CCOCC1)N1CCN(S(=O)(=O)N2CCCCC2)CC1	4%
Cc1oc(-c2ccccc2F)nc1CSCC(=O)NCc1ccc2c(c1)OCO2	-15%
CN1CCN(c2ccc(NC(=O)COc3ccccc3Cl)cc2)CC1	-16%
C[C@@H]1CC[C@H]2[C@H](C)[C@H]3CC[C@H]4C5[C@@H](O)CC6=CC(=O)CC[C@]6(C)[C@H]5C[C@H]4C3C(=O)N2C1 (some centres not stated)	-2%
C/C=C/c1c(F)c(F)c(Oc2ccc(C(=O)O)cc2)c(F)c1F	?
CSC(=NCCCN1CCOCC1)NS(=O)(=O)c1cccs1	-13%
O=C1NC2=C(CCc3ccccc32)C(c2ccccc2)N1 (configuration not stated)	?
Cc1ccc(S(=O)(=O)N2CCCC2C(=O)N2CCCCCC2)cc1 (configuration not stated)	-7%
Cc1cccc2cc(CN(CCCN3CCOCC3)Cc3nnnn3C(C)(C)C)c(=O)[nH]c12	-5%
CN(C)CCNC(=O)Cn1nc(-c2ccc(Cl)cc2)ccc1=O	-10%
Brc1cc2c(cc1C1Nc3ccccc3C3C=CCC31)OCO2 (configuration not stated)	-16%
O=C1C=C(NCc2ccc(Cl)cc2Cl)C2(CCCCC2)O1	-17%

# Source: PubChem (National Center for Advancing Translational Sciences (NCATS))

# Only part of the results is shown; rates above refer to the full screens.
